# Bioassay records deposited in PubChem BioAssay by several laboratories.
# Vif A3G: HIV-1 Vif–A3G interaction blockers – biochemical, TR-FRET, GST-Vif 1-94, biotin-A3G peptide, dose response retest, primary screen (AID 1117319) | actives 0.57% (n = 260,000) | TR-FRET GST-Vif / biotin-A3G peptide binding; higher % means a stronger effect; test concentration not given here; strong numbers were not always called active | inhibition, %; hits with a dose series show IC50 in µM;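 active = above the screen mean plus three standard deviations and confirmed in dose response; inconclusive = results disagree or hit not tested in dose response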;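 note: Vif residues 1-94 fused to GST binding biotinylated APOBEC3G peptide 110-148; 0% = full assay without inhibitor and 100% = GST in place of GST-Vif; retest series ran down from 100 µM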
# Beta cell apopt: beta cell apoptosis inhibition; INS-1E cytokine-induced death, ATP luminescence, 48 h; percent of positive-control rescue, neutral wells zero; protection from apoptosis, % (no concentration beside the values); actives 0.8% (n = 300,000); AID 435005;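 active = all replicates at 75% or more, or half of them and the mean; inconclusive = half reach 75% but not the mean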;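 note: 0% = cytokine-treated negative control wells and 100% = positive control rescue; higher means more ATP so stronger rescue from cytokine killing; wells of about 40 µL received 100 nL stock; the first replicate is given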
# T cruzi repl: T. cruzi replication inhibition. T. cruzi beta-gal in NIH3T3, luminescence, 90 h. inhibition, % (test concentration not listed). actives 1.4% (n = 300,000). AID 1885;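 active = mean inhibition across valid replicates above about 55%, limit read from the data; inconclusive = mean below that limit but half or more replicates reach it; inactive = mean below it, under half of replicates reach it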;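 note: signal also drops with host cell toxicity which is not excluded here; 0% = plate median of DMSO wells and 100% = zero luminescence signal; higher percent means less beta-gal luminescence so fewer parasites; stock transfer was 50 nL into about 50 µL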
# AF4-AF9 inh: MLL-AF4/AF9 protein interaction inhibition; inhibition, % at 10 µM; actives 0.47% (n = 350,000); P42568; AlphaScreen, biotin-AF4 peptide binding to FLAG-AF9;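 active = every replicate reaching a set inhibition limit, whatever the replicate mean, cut at about 25% in these data; inconclusive = mean inhibition reaches that limit but some replicates miss it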;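 note: 0% = plate neutral control median and 100% = total signal loss; the record names both 10 and 1 µM as test concentration; the first replicate is given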
# Target sequence (P42568 whole entry, looked up): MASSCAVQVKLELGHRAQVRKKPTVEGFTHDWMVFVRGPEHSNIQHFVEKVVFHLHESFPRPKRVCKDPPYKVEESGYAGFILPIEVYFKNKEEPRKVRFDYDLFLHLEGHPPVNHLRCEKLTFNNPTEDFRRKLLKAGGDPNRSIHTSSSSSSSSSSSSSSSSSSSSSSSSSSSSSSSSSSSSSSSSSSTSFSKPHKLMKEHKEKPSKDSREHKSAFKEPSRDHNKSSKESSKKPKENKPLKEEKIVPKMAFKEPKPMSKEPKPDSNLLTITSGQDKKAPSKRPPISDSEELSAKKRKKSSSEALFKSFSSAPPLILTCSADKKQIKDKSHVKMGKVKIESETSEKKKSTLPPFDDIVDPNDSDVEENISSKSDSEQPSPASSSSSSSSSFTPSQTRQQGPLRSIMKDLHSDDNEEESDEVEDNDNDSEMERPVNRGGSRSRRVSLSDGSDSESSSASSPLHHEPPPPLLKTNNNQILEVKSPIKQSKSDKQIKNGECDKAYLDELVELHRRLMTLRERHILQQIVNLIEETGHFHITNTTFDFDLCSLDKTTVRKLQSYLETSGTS
# A1 inh: inhibitors of the anti-apoptotic protein A1, read as caspase activation; MEF A1-2A-BIM cells, Caspase-Glo 3/7 luminescence, 3 h; percent of clofoctol response, vehicle zero; caspase activation, % (concentration not given with the values); actives 0.066% (n = 330,000);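 active = over half of replicate activation scores above 10%, or exactly half above 10 with the replicate mean above 10; inconclusive = replicate mean below 10 yet half the replicates above 10; inactive = over half of replicates below 10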;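 note: wells of about 30 µL received 50 nL stock; many hits fall short of the cut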
# Calb FLC: affects C. albicans growth with fluconazole | AID 1979 | C. albicans CaCi-2 (fluconazole-resistant clinical isolate) + fluconazole, Alamar Blue growth, 48 h | growth inhibition, % (concentration not given with the values) | actives 0.57% (n = 300,000);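 active = most replicates above 75%; inconclusive = exactly half above 75%; inactive = most below 75%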;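 note: all wells also contain fluconazole at 8 µg/ml as a sub-toxic cotreatment; 0% = median of DMSO wells and 100% = median of geldanamycin control wells; wells of about 8 µL received 7.5 nL stock; the first replicate is given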
# rRNA inh HTS: inhibits bacterial ribosomal RNA function over humanized ribosomes; actives 1.6% (n = 350,000); E. coli WT GFP vs humanized-ribosome RFP mutants, fluorescence, 24 h; hits give low values; DMSO median 0, no signal -100; GFP signal change (wild-type ribosome), % (concentration not given with the values);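 active = significant combined selectivity score with lowered wild-type GFP, culture density cut under 30%, mutant RFP and density less affected; inactive = any of these conditions unmet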; note: one replicate is shown; some compounds called inactive have numbers as strong as hits
# RanGTP-Imp inh: disruptors of Ran-importin-beta complex formation – biochemical, FRET, CFP-Ran, YFP-importin-beta, homogeneous, primary screen; cell-free CFP-Ran/YFP-importin-beta FRET ratio; inhibition, % (test concentration not listed); actives 1.1% (n = 300,000); AID 2216;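 active = most replicates above 15%; inconclusive = exactly half above 15%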;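 note: 0% = DMSO wells and 100% = Ran loaded with GDP instead of GTP; wells of about 40 µL received 100 nL stock; the first replicate is given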
# rRNA inh HTS OD600: recorded beside rRNA inh HTS, whose call it bears; OD600 change, %; measured here: OD600 growth;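 optical density of the mix in the first replicate; 0 = DMSO median and -100 = no signal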
# rRNA inh HTS RFP: second read-out of rRNA inh HTS, no call of its own (marks repeat the call); RFP signal change, %; measured here: RFP humanized mutant strains;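 first replicate; 0 = DMSO median and -100 = no signal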
# Numbers without * were called inactive; ? = inconclusive; · = not tested or not shown; & = joins results of further samples. Not all compounds are listed. The share of hits here may be higher or lower than overall.
SMILES,Vif A3G,Beta cell apopt,T cruzi repl,AF4-AF9 inh,A1 inh,Calb FLC,rRNA inh HTS,rRNA inh HTS OD600,rRNA inh HTS RFP,RanGTP-Imp inh
O=C(COc1ccc(Br)cc1CNCCCN1CCOCC1)Nc1ccccc1,-4.4%,2.5,-5.0,0.1,0.3,0.7,12.4,11.8,1.6,3.6
CSCCC1NC(=O)N(CC(=O)Nc2ccc(N3CCCCC3)cc2)C1=O (stereo unspecified),4.1%,-0.8,2.2,·,1.1,-0.4,·,·,·,-2.7
CCc1ccccc1NC1=NCC(=O)N1C1CCCCC1,-1.2%,-3.9,12.5,·,-0.1,6.1,·,·,·,5.4
CCC(C)[C@H](NC(=O)N1CCCCCC1)C(=O)OC (stereo partly specified),1.2%,-0.4,-2.6,-2.6,0.8,-2.0,6.4,11.9,0.1,3.6
COC(=O)c1ccccc1NC(=O)CSc1nc2ccccc2c(=O)[nH]1,-16.1%,6.2,0.6,·,-0.7,26.9,·,·,·,-0.9
Clc1cc(Br)ccc1OCCN1CCOCC1,-7.8%,-1.0,-12.8,5.2,-0.8,-0.5,-3.9,4.0,-6.7,-9.0
COc1ccc(CCNC2CCN(C)CC2)cc1OC,0.9%,-2.7,30.8,·,-0.6,7.6,·,·,·,3.8
Cc1cccnc1NC(=S)Nc1ncccc1C,9.4%,3.3,-3.8,-1.0,-3.2,2.1,6.8,-2.4,2.4,-3.5
CCOc1ccc(NC(=O)COc2cccc3c2CCN(Cc2cccnc2)C3=O)cc1,7.5%,-1.6,17.5,-3.1,0.0,2.3,-18.1,-14.7,5.5,-3.7
CC12CC3CC(C)(C1)CC(NCc1ccncc1)(C3)C2,7.0%,-6.4,·,-0.2,0.2,-10.2,12.8,8.7,-1.7,·
O=C(COc1ccc(S(=O)(=O)N2CCOCC2)cc1)NC1CCCCC1,-3.2%,-8.6,·,5.3,-1.0,·,9.1,11.8,1.7,·
Cn1c(=O)c(C(N)=S)cn(-c2ccccc2)c1=O,-8.8%,-1.3,-4.5,-1.1,?,-4.4,12.6,11.3,0.8,1.7
CCOC(=O)c1cc(-c2nnc(SCC(=O)Nc3ccc(F)cc3)o2)c(C)nc1C,23.9%,0.8,-1.4,·,0.2,1.3,·,·,·,-2.2
COc1ccc(C(=O)Nn2c(C)nc3ccccc3c2=O)cc1OC,-1.4%,-4.6,5.3,-0.3,-0.1,-2.7,7.7,8.3,0.4,2.3
CSc1nnc2c(n1)c(C)nn2-c1ccc(C)cc1,-2.0%,-1.6,33.7,·,0.5,-2.4,·,·,·,-1.6
CN1CCN(C(=O)C2=C[C@H](c3ccc(C(F)(F)F)cc3)C[C@H](OCCCCO)O2)CC1,·,-7.1,-16.7,-8.1,-0.6,-2.3,12.8,5.0,-4.4,1.7
COc1ccccc1N1CCN(C(=O)CSc2ccc3c(C)cc(C)nc3n2)CC1,11.3%,-2.7,20.5,·,0.1,-2.5,·,·,·,0.8
COC(=O)c1cc(NC(=O)CN2C(=O)CSC2=O)ccc1Cl,3.1%,-3.8,-15.0,·,1.0,-12.1,·,·,·,-2.8
CC1C/C(=N\NC(=O)c2ccc([N+](=O)[O-])cc2)CC(C)(C)C1 (stereo unspecified),3.4%,6.4,-1.6,1.3,-0.1,-4.0,9.7,1.2,-4.6,0.9
COc1ccc(Cl)cc1NC(=O)c1c(-c2ccccc2)noc1C,-11.8%,2.1,18.9,·,-0.8,4.0,·,·,·,-1.5
CC(C)CC(=O)N1CCN(Cc2ccccc2[N+](=O)[O-])CC1,15.8%,-0.2,-24.4,0.6,0.7,-8.2,11.7,6.3,2.0,1.2
CCC1=NC(c2ccccc2)N(O)C1(C)C (stereo unspecified),-2.7%,-11.4,-4.5,·,0.3,-2.1,·,·,·,-2.2
CCOc1ccccc1N=NC1C(=O)N(C(N)=S)N=C1C (stereo unspecified),0.8%,39.3,-17.6,1.7,-0.2,-2.9,4.5,6.4,1.1,-0.8
Cc1ccc(-c2noc(C3CCCN(C(=O)c4ccccc4)C3)n2)o1 (stereo unspecified),8.2%,-0.8,10.6,·,-1.5,28.6,·,·,·,2.5
Cc1ccc(F)cc1CNC(=O)C1CCC(=O)N(CCc2ccccc2)C1 (stereo unspecified),·,-3.9,4.7,-3.7,-1.4,-3.5,2.5,2.1,1.1,-0.6
Cc1nc(N2CCOCC2)c2c(C)c(C(=O)Nc3ccc(F)cc3Cl)sc2n1,3.7%,7.4,3.1,2.8,0.4,-12.6,7.4,7.5,8.3,1.4
CC1=C(C(=O)NC2CCCC(C)C2C)C2(CCCCC2)OC1=O (stereo unspecified),6.5%,·,-26.6,-4.5,0.5,-0.1,8.3,4.8,2.6,1.2
CCOC(=O)C1=C(C)NC(C)=C(C(=O)OCC)C1C(=O)OCC(=O)NC,·,-7.9,·,-0.3,0.9,3.5,-5.8,11.3,-1.1,·
Clc1ccc(C2Nc3cccc4cccc(c34)N2)cc1Cl,·,·,3.1,6.4,0.4,4.1,11.5,25.1,3.8,3.0
CCOC(=O)C1(CCc2ccccc2)CCN(C2Cc3ccccc3C2)CC1,9.1%,1.6,-9.9,3.0,-0.2,12.0,-15.9,-12.1,0.0,1.1

# A section taken from the entries so far, as a working copy:
SMILES,Vif A3G,Beta cell apopt,T cruzi repl,AF4-AF9 inh,A1 inh,Calb FLC,rRNA inh HTS,rRNA inh HTS OD600,rRNA inh HTS RFP,RanGTP-Imp inh
CN1CCN(C(=O)C2=C[C@H](c3ccc(C(F)(F)F)cc3)C[C@H](OCCCCO)O2)CC1,·,-7.1,-16.7,-8.1,-0.6,-2.3,12.8,5.0,-4.4,1.7
COc1ccccc1N1CCN(C(=O)CSc2ccc3c(C)cc(C)nc3n2)CC1,11.3%,-2.7,20.5,·,0.1,-2.5,·,·,·,0.8

# (cont.)
SMILES,Vif A3G,Beta cell apopt,T cruzi repl,AF4-AF9 inh,A1 inh,Calb FLC,rRNA inh HTS,rRNA inh HTS OD600,rRNA inh HTS RFP,RanGTP-Imp inh
COc1cccc(CNC(=O)c2ccc3c(c2)N(C)CCS3)c1OC,·,0.0,7.4,-8.1,-0.3,-1.7,-3.3,8.0,1.8,-2.6
CCN(CC)C(=O)CSc1nc2c(sc(=S)n2-c2ccccc2)c(=O)n1-c1ccccc1OC,·,·,30.9,7.1,·,29.3,-6.4,-3.1,3.6,-1.7
CC(=O)NC(Cc1ccc(F)cc1)C(=O)NC1CCN(C(=O)Nc2cccc(C)c2)CC1 (stereo unspecified),·,·,-0.6,-3.7,0.1,-6.3,0.5,9.5,-3.2,-0.8
C=CCOC(=O)c1[nH]c2c(c1C)C(=O)CC(c1ccco1)C2 (stereo unspecified),28.0%,-15.5,-19.3,·,0.1,-9.4,·,·,·,-3.0
CN(C(=O)c1sc2nc(N3CCOCC3)c3c(c2c1N)CCCC3)c1ccccc1,30.5%,-3.3,34.8,-6.8,0.9,-5.5,-7.7,-3.0,2.5,5.3
CCN(CC)CCNC(=O)c1ccc(NC(=O)c2ccc(S(=O)(=O)N3CCCCCC3)cc2)cc1,-1.6%,2.0,5.1,-2.0,0.7,2.3,-7.2,-5.3,-0.8,3.7
Cc1ccccc1C1NC(c2ccccc2C)C([N+](=O)[O-])C(C)(C)C1[N+](=O)[O-] (stereo unspecified),6.9%,-2.2,-6.6,5.3,0.5,-3.1,·,·,·,5.3
COc1ccc(-c2oc3ncn(CCN4CCOCC4)c(=N)c3c2-c2ccc(OC)cc2)cc1,-7.3%&-2.0%,48.3,45.4,·,0.0,42.6,·,·,·,-0.4
CCOC(=O)c1c(C)[nH]c(C)c1S(=O)(=O)NCCN1CCN(c2ccccc2F)CC1,·,-0.9,-14.8,8.5,-0.7,-4.4,-16.5*,-11.7*,6.2*,-1.5
CN(C)CCNC(=O)CCn1nc(-c2ccc(Cl)cc2)ccc1=O,2.8%,·,-4.6,0.9,0.5,3.1,7.4,12.0,0.0,1.9
O=C(CN1C2CCCC1CC(NC(=O)c1ccco1)C2)Nc1ccccc1C(F)(F)F (stereo unspecified),16.7%,3.3,4.2,·,?,37.6,·,·,·,16.9*
CCOC(=O)N=Nc1c(O)n(Cc2ccccc2)c2ccccc12,0.1%,5.1,21.0,5.2,-1.3,?,-1.3,6.8,-1.6,?
COc1ccccc1CNC(=O)/C=C/c1ccc(Br)o1,-8.5%,·,-7.9,-1.7,-0.8,17.5,0.4,18.7,-3.9,-2.6
Cc1ccc(NS(=O)(=O)c2ccc(CCC(=O)N3CCCC3)cc2)cc1,·,-2.7,2.2,-3.7,0.3,-4.9,-6.0,-12.9,0.0,-2.5
COc1ccc2c(c1)C(=O)[C@H](O)[C@@H](c1ccc(OC)c(Br)c1)O2,21.5%,109.4*,13.7,-19.4,0.2,7.6,-3.5,-7.4,0.0,6.5
NNC(=O)CC12CC3CC(C1)CC(n1ncnn1)(C3)C2,5.8%,-5.5,12.8,·,0.3,-2.1,·,·,·,-3.0
COc1ccccc1/C=C/C=N/n1c(-c2ccc(Cl)cc2)n[nH]c1=S,·,-15.6,-9.9,0.6,0.5,1.4,4.3,6.4,-9.0,2.2
O=C(Nc1cc(F)cc(F)c1)c1ccc(NCCCN2CCCCCC2)c([N+](=O)[O-])c1,·,1.5,19.2,2.2,-0.1,98.3*,7.9,13.4,2.4,-0.2
O=C(NNC1CC(=O)N(c2ccc(Br)cc2)C1=O)c1cccnc1 (stereo unspecified),-2.2%,1.3,-11.7,-1.8,-0.1,-4.1,7.6,6.7,3.6,0.0
COc1ccc(-c2ccc(SCC(=O)N3CC(=O)Nc4ccccc43)nn2)cc1,·,2.9,-2.1,1.8,-0.7,-7.0,-13.4,-15.2,-0.3,0.0
CCC(C(=O)Nc1ccc(S(=O)(=O)N(C)C2CCN(C)CC2)cc1)c1ccccc1 (stereo unspecified),·,-1.5,·,1.4,-0.4,·,3.5,11.7,1.0,·
CN(CC(=O)NCc1ccco1)C(=O)C1CC(=O)N(c2ccc3c(c2)OCCO3)C1 (stereo unspecified),8.3%,-6.2,·,1.5,1.7,·,·,·,·,·
COc1ccc(/C=C/c2c(-c3ccccc3OC)sc3ccccc23)cc1OC,·,-7.6,·,12.4,0.5,·,8.7,6.3,0.6,·
Cc1cc(Cl)c(S(=O)(=O)Nc2ccc3c(c2)OCCO3)cc1OCC(N)=O,-4.2%,5.4,-0.1,·,-0.5,-4.3,·,·,·,5.2
COc1ccc(CNC(=O)C(CCSC)NS(=O)(=O)c2ccccc2F)cc1 (stereo unspecified),-0.3%,0.6,-9.7,1.2,-0.8,-39.3,1.7,-0.9,4.6,1.4
Cc1nn(C)c(C)c1CN(C)C(=O)c1cc2nc(-c3ccco3)cc(C(F)(F)F)n2n1,?,0.0,-10.4,·,-0.5,-1.0,·,·,·,5.4
